# Source: PubChem BioAssay
# gsp antag: gsp mutant antagonism | gsp-mutant cells, cAMP HTRF, 30 min; control for the full effect not named in the record | Potency, µM (top dose mostly 76.9 µM), for inactives: top-dose activity change, negative = inhibition, hits mostly inhibitors | 340,000 tested, 0.4% active | AID 624288; active = falling curve of any shape with a large fitted effect; inconclusive = falling curve, mostly with a smaller effect; inactive = flat or rising curve; cell line not stated here;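 further: intracellular cAMP measured with PDE inhibitor Ro 20-1724 present during compound exposure; potency means the concentration at half of the fitted maximal effect; on the % scale 0 is the no-effect control and ±100 the full control effect; nearly all actives have a fitted effect of over 65% in size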
#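 Cells in G418 medium, seeded 16-24 h, 37C; buffer exchange to DPBS + 1 mM CaCl2, 0.5 mM MgCl2, 0.05% BSA; cpds in DMSO + […] (300 uM stock), 30 min 37C; HTRF cAMP detection.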
# Menin MLL FP FL: inhibitors of human menin-MLL interaction, wild-type MLL peptide; FP activity change, % at 61.4 µM; Fluorescence polarization, fluorescein-MLL peptide displacement from menin; 290,000 tested, under 10 active; inconclusive = falling polarisation curve, or a change in total fluorescence; inactive = total fluorescence flat and polarisation flat or rising; no compound was filed as active; the % refers to the polarisation; negative = inhibition;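 further: % of control where 0% means no effect; inhibitors lower the polarisation; unlabelled MLL peptide was the positive control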
# ClpP mod: qHTS Assay for Activators of ClpP; ATP-dependent Clp protease proteolytic subunit (Bacillus subtilis (strain 168)), P80244; 340,000 tested, 1.9% active; Potency, µM (top dose mostly 57.5 µM), without a hit: at the highest dose activity change, negative = active; purified B. subtilis ClpP, FRET peptide cleavage, 20 min; active = well fitted falling curve with a large enough effect; inconclusive = small, poorly fitted or top-dose-only effect; inactive = no such curve, though single readings can be large or run the other way; further: potency means the concentration at half of the fitted maximal effect; the source files actives as falling curves though it sought activators and does not explain the sign; nearly all actives have a fitted effect of over 65% in size; many hits overshoot -100%
# Target sequence (P80244 whole entry, looked up): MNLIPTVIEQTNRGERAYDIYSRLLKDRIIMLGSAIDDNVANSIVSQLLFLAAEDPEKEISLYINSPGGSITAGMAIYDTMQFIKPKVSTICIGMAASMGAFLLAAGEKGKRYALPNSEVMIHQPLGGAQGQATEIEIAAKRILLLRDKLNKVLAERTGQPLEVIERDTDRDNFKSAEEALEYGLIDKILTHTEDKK
#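 Buffer: 100 mM Tris/HCl pH8, 100 mM KCl, 0.05% low protease BSA, 2.5% glycerol, 0.01% Tween-20. ClpP 10 microg/mL final; 20 min RT; delta FRET normalized to ADEP and DMSO controls.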
# Sfp PPTase inh: blocks B. subtilis Sfp PPTase activity; 310,000 tested, 3.5% active; AID 1490; Biochemical Sfp PPTase activity, qHTS; Q9F4F7; Potency, µM, for inactives: max response, negative = inhibition, hits mostly inhibitors; active means well fitted inhibition curve with a large enough effect; inconclusive means small, poorly fitted or top-dose-only effect, or another doubt; inactive means no such curve, though single readings can be large or run the other way;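 further: the enzyme is Sfp with the accession as filed and its product quenches rhodamine fluorescence; potency means the concentration at half of the fitted maximal effect; 0% = enzyme reaction without inhibitor and -100% = no enzyme wells; top concentration of the series not given in the record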
#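 Compounds were incubated with enzyme (final 15 nM) for 15 min at room temperature before substrate addition started the reaction. Fluorescence at 525 nm excitation, 598 nm emission was recorded immediately and after 30 minutes.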
# TRPV1 PAM: potentiators of human vanilloid receptor 1 (TRPV1). Q8NER1. TRPV1-expressing cells, Fluo-8 calcium influx, capsaicin EC20 potentiation; host cell line not named in the record; control for the full effect not named in the record. potentiation, % at 8.33 µM. 320,000 tested, 0.02% active; active means potentiation above 80%; inconclusive means 30% to 80%; inactive means below 30%; further: 0% is about no effect
# Target sequence (Q8NER1 whole entry, looked up): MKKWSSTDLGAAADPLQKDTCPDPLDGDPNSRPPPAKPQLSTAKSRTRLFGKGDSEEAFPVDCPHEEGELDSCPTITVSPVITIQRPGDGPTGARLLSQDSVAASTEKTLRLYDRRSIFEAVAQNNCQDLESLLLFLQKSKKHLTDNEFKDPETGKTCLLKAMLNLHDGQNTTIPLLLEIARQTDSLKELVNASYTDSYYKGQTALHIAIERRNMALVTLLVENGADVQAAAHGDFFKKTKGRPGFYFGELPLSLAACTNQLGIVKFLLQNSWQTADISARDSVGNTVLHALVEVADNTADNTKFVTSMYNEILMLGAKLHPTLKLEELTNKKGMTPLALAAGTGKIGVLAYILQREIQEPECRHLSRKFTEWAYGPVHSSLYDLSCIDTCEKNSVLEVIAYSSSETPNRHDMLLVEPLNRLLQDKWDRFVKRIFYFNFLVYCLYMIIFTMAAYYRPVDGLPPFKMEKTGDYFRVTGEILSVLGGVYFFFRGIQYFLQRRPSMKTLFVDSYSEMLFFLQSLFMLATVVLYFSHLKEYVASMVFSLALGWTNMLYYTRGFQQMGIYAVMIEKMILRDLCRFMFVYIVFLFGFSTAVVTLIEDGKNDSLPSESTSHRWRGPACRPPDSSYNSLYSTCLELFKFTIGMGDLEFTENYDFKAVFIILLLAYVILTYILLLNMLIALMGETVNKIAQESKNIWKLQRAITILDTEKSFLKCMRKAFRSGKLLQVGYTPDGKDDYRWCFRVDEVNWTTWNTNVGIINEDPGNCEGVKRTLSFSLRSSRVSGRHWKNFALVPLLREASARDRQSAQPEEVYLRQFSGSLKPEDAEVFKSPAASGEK
#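 Fluo-8 calcium influx in TRPV1-expressing cells, kinetic read (ex 480/em 520 nm). Compound added and read 3 min for agonist activity, followed by capsaicin at EC20 final and 2 min further read for enhancement.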
# gsp agonist: activates gsp, the McCune-Albright syndrome mutation. gsp mutant cells, cAMP HTRF, 30 min; control for the full effect not named in the record. Potency, µM (series often up to 76.9 µM), inactives show top-dose activation (cAMP increase), actives largely listed as activators. 340,000 tested, 0.13% active. AID 624287; active = well fitted activation curve with a large enough effect; inconclusive = small, poorly fitted or top-dose-only effect, or another doubt; inactive = no such curve, though single readings can be large or run the other way; cell line not stated here;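 further: phosphodiesterase inhibitor Ro 20-1724 added with compounds to block cAMP breakdown; potency means the concentration at half of the fitted maximal effect; nearly all actives have a fitted effect of over 60% in size; about a fifth of the inactives were tested at one dose only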
#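 Cells in DMEM/10% FBS with G418 were pretreated with compounds in DMSO plus […] (300 uM stock) for 30 min at 37C. cAMP was measured by HTRF (cAMP-d2 plus anti-cAMP antibody-K) after 30 min at room temperature.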
# D2 potentiator: human D2 receptor positive allosteric modulation; DiscoveRx D2 beta-arrestin cells, luminescence, 90 min; 100% = 57 uM dopamine signal; potentiation, % (concentration not given with the values); 360,000 tested, 0.23% active; active = potentiation of 50% or more; inconclusive = 30% to 50%; inactive = 30% or less;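 further: compound concentration not given in the record; tested on top of an EC20 dose of dopamine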
#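 PathHunter D2 cells, attached overnight at 37 deg C, received compound in DMSO plus dopamine at EC20 (50 nM final) for 90 min at 37 deg C. Beta-arrestin recruitment was read as luminescence after 1 h with detection reagent at ambient temperature.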
# The depositor's hits bear a star; ? = inconclusive; · = no result given; & = joins results of further samples; [ ] = remark or other dose.
No.	Molecule	gsp antag	Menin MLL FP FL	ClpP mod	Sfp PPTase inh	TRPV1 PAM	gsp agonist	D2 potentiator
1	CCc1cc(C(=O)NCC(C)(C)N2CCOCC2)sc1C	11.0%	·	-20.8%	·	1.4	-6.1%[15.4 µM]	-18.9
2	O=C(Cn1c(=O)oc2ccccc21)Nc1ccc(Br)cc1	-1.8%	-1.7	·	4.8%	14.0	0.0%[15.4 µM]	-8.9
3	O=C(COc1ccc(Br)cc1)N1CCc2ccccc21	-7.6%	-1.1	0.2%	0.8%	-8.9	-8.6%[15.4 µM]	-4.6
4	CCOC(=O)c1c(-c2ccc(C)cc2)csc1NC(=O)CCN1CC(C)OC(C)C1 (stereo not given)	11.5%	-8.3	-7.5%	15.8µM*	5.8	-2.7%	-13.2
5	Oc1ccc(Nc2ccc3ccccc3c2)cc1	5.9%	·	-1.0%	·	·	-0.2%[15.4 µM]	66.3*
6	O=C1c2ccccc2NC(c2ccc3c(c2)OCCO3)N1c1ccc2c(c1)OCCO2 (stereo not given)	-12.8%	2.9	?	-11.2%	3.6	?	26.5
7	Cc1nc2ccccc2c(=O)n1-c1ccc(NS(=O)(=O)c2ccc(F)cc2)cc1	-7.2%	·	2.8%	·	-6.6	-4.4%	8.9
8	O=C(CCC(=O)N1CCN(c2ccc(Cl)c(Cl)c2)CC1)c1ccccc1	-28.8%	0.3	1.6%	-9.1%	-17.9	-31.1%	-10.7
9	CCCOc1cccc(OCCSc2nc(C)cc(=O)[nH]2)c1	?	-0.3	-1.7%	10.5%	-3.2	27.4%	-3.0
10	O=C(O)c1cccc(-c2ccc(/C=N/NC(=O)C3COc4ccccc4O3)o2)c1 (stereo not given)	-22.2%	1.2	·	28.2µM*	-8.7	-5.1%[15.4 µM]	-3.0
11	COc1ccc(CC(=O)Nc2cccc(C(=O)NN3C(=O)c4ccccc4C3=O)c2C)cc1	5.5%	-0.5	12.0%	-1.5%	11.2	-40.6%[inhibitor]	0.3
12	CCO[C@@H]1OC(C(=O)NCc2nc3ccccc3[nH]2)=C[C@H](C2CCCCC2)[C@H]1CCCO	-14.1%	-4.6	1.5%	7.9%	-1.9	-4.1%	-14.5
13	COc1ccccc1C(NC(=O)CC(C)C)c1c(O)ccc2ccccc12 (stereo not given)	-14.0%	0.8	35.5µM*	27.2%	5.3	?	-2.6
14	CCOc1ccccc1-n1c(SCC(=O)N(C(C)C)C(C)C)nnc1-c1cccnc1	-12.3%	1.4	-0.7%	11.9%	10.0	7.9%	9.4
15	CC(=O)Nc1ccc2c(O)cc(S(=O)(=O)O)cc2c1	9.1%	·	·	·	·	16.5%	5.2
16	Cc1ccc2c(CN3CCCCC3)cc(=O)oc2c1	-0.9%	5.6	-4.3%	10.9%	-2.8	?	-26.7
17	O=C(/C=C/c1cccc([N+](=O)[O-])c1)NCCc1ccc(F)cc1	-14.5%	1.0	-10.2%	-41.7%	-4.5	9.9%	-15.2
18	O=C(NNC(=O)c1cc(Cl)ccc1O)c1ccc(NS(=O)(=O)c2cccs2)cc1	-17.6%	·	20.3%	·	-1.1	0.5%[15.4 µM]	-16.6
19	COc1cc(CNCC2CCCO2)ccc1OCC(N)=O (stereo not given)	4.4%	0.4	-6.3%	6.7%	7.6	-42.2%[inhibitor]	-13.4
20	O=C(NCCCn1ccnc1)C1CCN(S(=O)(=O)c2ccc(F)cc2)CC1	5.2%	0.4	·	9.9%	7.7	-7.6%[15.4 µM]	-4.0
21	CCN(CC)C(=O)CSc1nc2nc(C)cc(C)c2c(=O)[nH]1	3.0%	2.2	25.1µM*	17.5%	6.4	-28.4%	-2.2
22	O=C(CNC(=O)c1ccco1)Nc1ccc(OC(F)F)cc1	9.1%	-2.3	-2.1%	12.3%	-16.2	-42.1%[inhibitor]	-10.9
23	CCN(C(=O)COC(=O)CCC(=O)c1cccs1)C1CCCCC1	4.5%	·	-3.6%	·	·	-41.2%[inhibitor]	-6.3
24	CCCn1c(SC(C)C(=O)NCC2CCCO2)nc2sc3c(c2c1=O)CCC3 (stereo not given)	-25.3%	·	·	·	-9.4	-5.7%[15.4 µM]	17.7
25	CCCn1c(C(C)NS(=O)(=O)c2ccccc2)n[nH]c1=S (stereo not given)	0.5%	-2.3	1.5%	3.9%	-15.4	0.3%	-6.4
26	C=C1C(=O)C=C[C@]2(C)C[C@@H]3OC(=O)[C@](C)(O)[C@H]3C[C@@H]12	-8.7%	3.9	0.4%	8.4%	-20.0	·	-8.9
27	Cc1c(NC2=CC(=O)CCC2)c(=O)n(-c2ccccc2)n1C	1.7%	5.1	·	9.0%	6.9	-25.5%[15.4 µM]	-4.6
28	COc1ccc(/C=C2\SC(=S)N(CCC(=O)Nc3cccc(O)c3)C2=O)cc1OC	-5.9%	-0.3	·	-6.4%	3.2	8.5%[15.4 µM]	-6.6
29	CNC(=O)C1(C(F)(F)F)C/C(=C\CCO)CCCO1 (stereo not given)	9.9%	0.7&-1.9	1.6%	20.8%&13.7%	-9.1	·	-3.5
30	COc1ccc(C(=O)NCC(=O)OCc2cccc(Br)c2)cc1	0.1%	-1.4	0.9%	20.9%	-12.5	-21.8%	-0.2
31	CCCCc1ccc(Nc2ncnc3nc[nH]c23)cc1	-5.2%	-1.1	-8.7%	15.3%	-10.4	3.7%	-4.1
32	CC(C)N1CCN(C(=O)c2ccc([N+](=O)[O-])cc2)CC1	9.9%	·	2.0%	·	·	-19.4%	1.6
33	CCNC(=O)Cc1ccc(S(=O)(=O)N2CCOCC2)s1	16.1%	·	1.4%	·	-2.0	16.9%	-3.3
34	CC(=O)Nc1ccc(OC(=O)c2cc3cc(Br)cc(Br)c3oc2=O)cc1	·	24.9	·	9.5%	6.1	·	·
35	CCN(C[C@H]1N[C@@](CC)(C(=O)OC)[C@H]2C(=O)N(Cc3ccccc3)C(=O)[C@@H]12)C(=O)c1ccc(C(C)(C)C)cc1	?	·	0.1%	·	·	·	57.1*
36	CCOc1ccc(Oc2ccc(NS(=O)(=O)c3ccc(CCC(=O)O)cc3)cc2)cc1	·	·	-3.1%	·	·	-6.3%	-13.0
37	O=C(CSc1nnc(-c2ccncc2)n1-c1ccc(F)cc1)NC(=O)NCc1ccco1	0.3%	4.8	-8.7%	1.2%	-11.4	-60.2%[inhibitor]	-24.0
38	CCOc1ccccc1NC(=O)CCC(=O)O	2.7%	1.8	-1.9%	13.8%	2.7	2.1%	-17.5
39	O=C(O)c1cc2c(cc1NC(=O)c1c(F)cccc1F)OCCCO2	?	2.4	·	18.2%	?	10.4%[15.4 µM]	-3.5
40	COc1ccc(C2CC(=O)c3cnn(-c4nc(C)cc(C)n4)c3C2)cc1 (stereo not given)	-21.5%	-0.6	-1.4%	6.0%	7.1	20.8%	-4.1
41	Cc1c(CCO)c(=O)n(-c2ccccc2)n1S(=O)(=O)c1c(Cl)cc(Cl)cc1Cl	-18.5%	0.9	0.0%	70.8µM*	-9.7	-13.0%	5.7
42	COC(=O)[C@]1(C)N[C@H](c2ccc(-c3cccc(Cl)c3)cc2)[C@@H]2C(=O)N(C)C(=O)[C@@H]21	-6.5%	·	-13.5%	·	·	-39.8%[inhibitor]	-0.8
43	Cc1cc(Nc2ccc(C)c(F)c2)n2ncnc2n1	16.1%	3.8	0.8%	13.8%	4.8	15.1%	-6.7
44	O=C(Oc1ccc[nH]c1=O)c1ccccc1	·	·	0.4%	·	·	-5.7%	1.4
45	CCC(C)(C)n1nnnc1CN1CCSCC1	4.2%	2.7	-1.4%	9.3%	1.3	-18.4%	-9.3
46	CC(C)N(Cc1ccccc1)S(=O)(=O)N(C)C	1.1%	3.1	0.3%	28.7%	10.2	-25.8%	11.7
47	ONC(=Nc1ccccc1)c1ccc(Cl)cc1	-3.2%	2.4	0.7%	20.3%	-7.4	18.9%	7.4
48	Cc1noc(C)c1C(=O)Nc1nc(-c2ccc([N+](=O)[O-])cc2)cs1	28.2µM*	·	-8.6%	7.3%	-6.9	-57.6%[inhibitor]	-1.8
49	CCC(OC(=O)c1nsc(Cl)c1Cl)C(=O)NCCOC (stereo not given)	6.2%	3.3	3.1%	10.7%	-6.3	29.3%	-6.7
50	O=C(CSc1nnc(Cc2ccccc2)n1-c1ccccc1)N1CCOCC1	6.9%	5.5	0.6%	4.5%	3.9	6.1%	4.7
51	O=C(CCCN1C(=O)S/C(=C/c2ccccc2)C1=S)Nc1ccc(C(=O)O)cc1	-16.0%	2.2	1.6%	17.0%	1.9	?	-6.9
52	O=C(NCCc1ccccc1)c1ccc(-c2ccccc2C(F)(F)F)o1	-7.4%	2.3	?	-29.8%	-6.7	·	-17.5
53	CN(CCCNC(=O)Cn1cc2c(n1)CCCC2)C1CCCCC1	-1.8%	2.7	-3.9%	21.8%	14.7	-0.8%	-6.3
54	Cc1ccc2c(C)nc(SC(C(=O)c3ccccc3)c3ccccc3)nc2c1 (stereo not given)	-27.2%	3.2	-1.3%	1.5%	6.6	-4.7%	3.6
55	Cc1n[nH]c(C)c1-c1nc2ccccc2[nH]1	12.6%	1.3	-2.0%	5.9%	-0.6	11.7%	4.9
56	O=c1[nH]c(SCCOc2ccccc2F)nc2ccccc12	-19.5%	1.2	-15.3%	3.0%	6.4	18.0%[15.4 µM]	-5.6
57	CC(C)NC(=O)CN(C(=O)CCC(=O)Nc1nccs1)c1ccc2c(c1)OCO2	20.8%	·	-4.5%	-7.3%	6.2	-6.3%[15.4 µM]	4.3
58	CCOc1cccc2sc(N(CCN(C)C)C(=O)c3cc4ccccc4cc3OC)nc12	4.1%	-3.6	-6.7%	?	6.9	22.1%	-30.0
59	Cc1cc(C)cc(NC(=O)c2ccc(CN3CCc4ccccc4C3)cc2)c1	-0.1%	-0.4	-3.1%	13.2%	9.7	12.8%[15.4 µM]	-12.5
60	C=C(C)COc1ccc2c(C)c(CC(=O)OC)c(=O)oc2c1C	-7.5%[15.4 µM]	5.7	?	-14.4%	-45.2	-5.6%	-10.3
61	CC(C)=CC1C(C(=O)Nc2ccc(Br)cn2)C1(C)C (stereo not given)	-5.7%	1.7	0.8%	11.6%	-9.8	-15.8%	3.1
62	Cc1ccccc1-n1nnnc1SCC(=O)Nc1ccc(N2CCN(C)CC2)cc1	-0.4%	-0.4	0.8%	13.9%	-0.1	-33.2%[inhibitor]	-21.6
63	O=S(=O)(NC(CO)Cc1ccccc1)c1cc(Cl)ccc1F (stereo not given)	5.4%	·	0.5%	·	·	·	-0.6
